Screening data deposited in PubChem by several laboratories.
VCAM-1 down: suppression of endothelial VCAM-1 upregulation – cell-based, plate reader, pooled HUVEC, TNFa stimulus (AID 454) | HUVEC TNFa-induced VCAM-1 surface immunofluorescence, plate reader; numbers were filed only for top-ranked candidate wells | inhibition, % at 5 µM | actives 0.2% (n = 10,000);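 active = compound among top-ranked inhibitors of TNF-induced VCAM-1 adhesion protein staining, with the hit upheld by image or statistical review; inactive = the rest, including hits rejected on review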;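 note: 0% = TNFa with vehicle and 100% = cells without TNFa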
FPRL1 ligand: ligands of human FPRL1, also counter-screen for FPR ligands. P25090. FPRL1-expressing cells, fluorescent ligand binding inhibition, flow cytometry. inhibition, %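 (tested at 6.7 µM)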. actives 0.3% (n = 24,000);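 note: 0% = buffer alone and 100% = receptor blocker peptide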
Target sequence (P25090 whole entry, looked up): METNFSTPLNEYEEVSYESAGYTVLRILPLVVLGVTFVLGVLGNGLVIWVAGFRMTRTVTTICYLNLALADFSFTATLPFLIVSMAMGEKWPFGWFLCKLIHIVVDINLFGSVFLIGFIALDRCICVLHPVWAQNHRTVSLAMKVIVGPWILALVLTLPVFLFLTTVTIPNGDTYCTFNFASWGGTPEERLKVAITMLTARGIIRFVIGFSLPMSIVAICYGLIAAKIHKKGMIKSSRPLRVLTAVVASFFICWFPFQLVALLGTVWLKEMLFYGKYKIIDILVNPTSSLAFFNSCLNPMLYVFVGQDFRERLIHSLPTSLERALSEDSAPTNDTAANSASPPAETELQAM
FPR binder: binds the human formylpeptide receptor FPR | inhibition, %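 (tested at 6.7 µM)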 | FPR-expressing cells, fluorescent ligand binding, flow cytometry | P21462 | actives 0.74% (n = 24,000);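 note: 0% = buffer wells and 100% = receptor blocker peptide wells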
Target sequence (P21462 whole entry, looked up): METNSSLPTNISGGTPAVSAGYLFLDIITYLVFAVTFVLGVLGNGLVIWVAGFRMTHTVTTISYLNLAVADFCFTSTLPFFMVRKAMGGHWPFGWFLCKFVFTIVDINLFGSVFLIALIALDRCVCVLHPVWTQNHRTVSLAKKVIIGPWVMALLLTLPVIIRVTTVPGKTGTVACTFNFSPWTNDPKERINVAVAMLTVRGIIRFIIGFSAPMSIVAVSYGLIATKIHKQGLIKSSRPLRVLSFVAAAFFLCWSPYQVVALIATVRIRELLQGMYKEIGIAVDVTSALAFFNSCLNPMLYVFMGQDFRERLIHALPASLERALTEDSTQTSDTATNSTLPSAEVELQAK
VCAM-1 imaging: suppression of endothelial VCAM-1 upregulation – imaging, high-content imaging, pooled HUVEC, TNFa stimulus (AID 456) | HUVEC TNFa-induced VCAM-1 surface expression, immunofluorescence imaging; numbers were filed only for top-ranked candidate wells | inhibition, % at 5 µM, or IC50 in µM where a hit was titrated | actives 0.2% (n = 10,000);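 active = top tenth filtered wells with inhibition above zero that passed visual or statistical confirmation; inactive = the rest, including hits rejected on review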;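 note: 0% = stimulated vehicle wells and 100% = unstimulated cells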
VCAM-1 augmentation: boosters of cytokine-driven VCAM-1 levels – imaging, high-content imaging, pooled HUVEC, TNFa stimulus (AID 457); calls only; Pooled HUVEC, TNFa-induced VCAM-1 immunofluorescence imaging; hits of this screen are not shown here; actives 0.2% (n = 10,000);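 active = a top-ranked rise in VCAM-1 staining upheld on image or statistical review; inactive = the rest, including candidates rejected on review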;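 note: compounds tested at 5 µM in the well; cells exposed to compound for 24 hours before fixing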
The depositor's hits bear a star; i = inactive; . = not tested or not shown.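 Rule for the calls, unless noted: active = mean above 30%; inconclusive = self-fluorescent; inactive = the rest.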 This is a subset; count on the stated rates, not on these rows.

Order of results: FPR binder	FPRL1 ligand	VCAM-1 down	VCAM-1 augmentation	VCAM-1 imaging
O=C(O)CN1C(=O)CCS(=O)c2ccccc21 (stereo unspecified)
 : -7	-2	.	.	.
CN(CCc1ccccn1)c1ncnc2[nH]ncc12
 : 0	5	i	i	i
CC(C)(C)OC(=O)NCC(=O)NCC(=O)OCc1ccccc1
 : -5	7	.	.	.
CCC(=O)O[C@@H]1CC(=O)O[C@H](C)CC=CC=C[C@@H](O)[C@H](C)C[C@H](CC=O)[C@H](O[C@H]2O[C@H](C)[C@@H](O[C@H]3C[C@@](C)(O)[C@@H](OC(=O)CC)[C@H](C)O3)[C@H](N(C)C)[C@H]2O)[C@H]1OC
 : -4	0	i	i	i
CCC(C)NC(=O)c1cc(CC(C)C)on1 (stereo unspecified)
 : 3	9	i	i	i
CCn1ncc(C2=NOC(C(=O)Nc3ccc4c(c3)OCO4)C2)c1C (stereo unspecified)
 : -6	-4	i	i	i
CCOC(=O)C1=C(NC#N)OC(C)=C(C)C1c1ccc(O)cc1 (stereo unspecified)
 : 4	-2	i	i	i
COC(=O)c1c(N)sc(C(=O)N2CCOCC2)c1C
 : -2	4	i	i	i
CC1Cc2ccccc2N1C(=O)CCS(=O)(=O)c1cccs1 (stereo unspecified)
 : 7	8	.	.	.
CC(C)(C)NC[C@H](O)COc1nsnc1N1CCOCC1
 : -2	2	i	i	i
COc1ccc(OC)c(C2C(C(=O)Nc3ccccc3OC)=C(C)Nc3nc(CCCO)nn32)c1 (stereo unspecified)
 : -2	-6	.	.	.
O=C(O)C1CCCN(S(=O)(=O)c2ccc(Cl)s2)C1 (stereo unspecified)
 : -9	-5	i	i	i
O=C(CN(c1ccccc1)S(=O)(=O)c1ccccc1)N1CCN(Cc2ccc3c(c2)OCO3)CC1
 : -5	-8	i	i	i
O=C(NCC1COc2ccccc2O1)C1CCCN(S(=O)(=O)c2cnc[nH]2)C1 (stereo unspecified)
 : -2	-4	i	i	i
Cc1ccc(Cn2ccc(NC(=O)c3c(-c4ccccc4Cl)noc3C)n2)cc1
 : 1	-4	.	.	.
CCOC(=O)N1CCN(CC(=O)Nc2cc3c(cc2C(C)=O)OCO3)CC1
 : -5	-3	.	.	.
COC(=O)c1cc(=O)n(Cc2ccco2)c(=Nc2ccc(F)c(Cl)c2)s1
 : -7	-8	.	.	.
O=C(N1CCOCC1)N1CCC(NC(=O)C23CC4CC(CC(C4)C2)C3)CC1
 : -4	5	i	i	i
O=C(Nn1cnnc1)c1ccncc1
 : -6	-1	.	.	.
COc1ccccc1Oc1c(C)oc2c(CN3CCN(CCO)CC3)c(O)ccc2c1=O
 : -6	1	.	.	.
Cc1ccc(-n2nnc3c(SCC(=O)N4CCN(c5ccccc5)CC4)ncnc32)cc1
 : -3	-1	.	.	.
COc1ccc(C2SCC(=O)N2c2c(C)n(C)n(-c3ccccc3)c2=O)c(OC)c1 (stereo unspecified)
 : 3	0	.	.	.
CCCCNC(=O)CS(=O)Cc1nc(-c2cccc(C)c2)oc1C (stereo unspecified)
 : -3	-1	.	.	.
CCC1Oc2ccccc2N(CC(=O)Nc2ccc(OC)cc2OC)C1=O (stereo unspecified)
 : -2	0	i	i	i
COc1ccccc1-n1cnc2cc(NS(=O)(=O)c3ccccc3)ccc21
 : -3	-6	i	i	i
CCCSc1nnc(Cc2cc(=O)[nH]c(=O)[nH]2)n1-c1cc(C)ccc1C
 : 6	3	.	.	.
CCOc1ccc(CCNc2cc(C)nc3ncnn23)cc1OCC
 : 1	1	.	.	.
CCCCOC(=O)Nc1nccs1
 : -6	-3	i	i	i
CCOC(=O)Cc1c(C)nc2c(C#N)c[nH]n2c1=O
 : -11	-5	.	.	.
CCOC(=O)c1c(C)c(C(=O)N2CCN(C(=O)c3ccco3)CC2)c(C)n1C
 : 3	4	.	.	.
CCOC(=O)CSc1nc2ccccc2c(=O)n1CCCCCC(=O)NCc1ccco1
 : -6	3	.	.	.
CCn1nccc1C(=O)Nc1nccs1
 : 7	0	i	i	i
COc1ccc(Cn2c(SCC(=O)NCc3ccco3)nc3ccsc3c2=O)cc1
 : -2	1	.	.	.
O=C1CCc2cc(S(=O)(=O)N3CCCC3C(=O)N3CCN(c4ccccc4)CC3)ccc2N1 (stereo unspecified)
 : 4	4	.	.	.
O=C(c1ccco1)c1nnn(Cc2ccccc2)c1-c1ccccc1
 : -2	3	i	i	i
COc1ccc(NC(=O)CSc2nnc(Cc3cccn3C)n2-c2ccc(C)cc2)cc1OC
 : -7	-8	.	.	.
C=CCn1c(SCC#N)nc2c(c1=O)C(C)(C)Cc1ccccc1-2
 : -5	4	i	i	i
CCCN(CCC)CCCNC(=O)c1cc2c(=O)n(C)c3ccccc3c2n1C
 : 10	8	.	.	.
Cc1ccc2cc(CCNC(=O)C(C)C)c(=O)[nH]c2c1C
 : 1	-1	i	i	i
CCCCn1c(CN(C)Cc2ccccc2)nc2c1c(=O)n(C)c(=O)n2C
 : -2	-2	i	i	i
CCN(CC)CCNC(=O)Cn1nc(-c2ccc(C)cc2)ccc1=O
 : -4	1	.	.	.
CCOC(=O)CC(=O)CSc1ccc2nnc(-c3cccc(F)c3)n2n1
 : 1	2	.	.	.
COc1cc(-c2nc(S(=O)(=O)c3ccc(C)cc3)c(N(C)C)o2)cc(OC)c1OC
 : -5	4	i	i	i
COc1ccc(NS(=O)(=O)c2ccc3c(c2)CCC(=O)N3)c(OC)c1
 : 1	2	.	.	.
Cc1nc2nc(Cc3ccccc3)[nH]n2c(=O)c1Cc1ccccc1
 : 19	-2	i	i	i
COc1ccc(N(CC(=O)O)S(=O)(=O)c2cccnc2)cc1
 : 3	4	.	.	.
COc1ccc(-c2noc(C3CCCN(C(=O)CCc4ccccc4)C3)n2)cc1 (stereo unspecified)
 : 13	-3	i	i	i
Cc1sc(NC(=O)C2CCCCC2C(=O)O)c(C(N)=O)c1-c1ccc(C(C)(C)C)cc1 (stereo unspecified)
 : 49*	3	.	.	.
COc1cc(C(=O)NCCC(=O)NCc2ccc3c(c2)OCO3)cc(OC)c1OC
 : -3	-4	.	.	.
C=CCn1c(NCc2cc(C)ccc2O)nc2ccccc21
 : 6	2	.	.	.

Other records
Order of results: FPR binder	FPRL1 ligand	VCAM-1 down	VCAM-1 augmentation	VCAM-1 imaging
Cc1nc2ncnn2c(C)c1CCC(=O)Oc1ccccc1
 : 11	2	.	.	.
CCC(C)NC(=O)C1c2ccccc2C(=O)N1Cc1cc(OC)ccc1OC (stereo unspecified)
 : -5	11	.	.	.
Cc1ccccc1OCC(O)Cn1c(NCCN(C)C)nc2c1c(=O)n(C)c(=O)n2C (stereo unspecified)
 : -8	-3	.	.	.
O=C(NCCc1ccccc1)C1CCN(S(=O)(=O)c2cccc3nsnc23)CC1
 : -2	-2	.	.	.
CCOC(=O)c1c(-c2ccc(C)o2)csc1NC(=O)CN1CCN(CC)CC1
 : 0	-2	80	i	i
COc1ccccc1C(=O)N1CCN=C1SC
 : -2	-1	.	.	.
CC1Cn2c(nnc2-c2cccc(Cl)c2)S1 (stereo unspecified)
 : -3	0	.	.	.
COc1cc(-n2c(C)nc3cc(C(=O)NCc4ccco4)ccc32)cc(OC)c1OC
 : -7	-2	.	.	.
CCOc1ccc(CN2C(=O)CCC2(C)C(=O)NCc2cccnc2)cc1 (stereo unspecified)
 : -1	-2	.	.	.
O=C(CN1C(=O)C2C3C=CC(C3)C2C1=O)NCC1COc2ccccc2O1 (stereo unspecified)
 : -1	6	.	.	.
COc1ccc(-c2noc(COc3ccc(Cl)c(C)c3)n2)cc1
 : -4	-1	i	i	i
CC(=O)NCCn1c(SCC(=O)NCc2ccco2)nc2ccccc2c1=O
 : 2	-2	.	.	.
COc1cccc(CN(C)CC(=O)NC(=O)NCc2ccco2)c1
 : -2	7	i	i	i
CCN(CC)C(=O)CSC1=Nc2ccccc2C2=NC(Cc3c[nH]c4ccccc34)C(=O)N12 (stereo unspecified)
 : -3	-5	.	.	.
CN1C(=O)CSc2ccc(NC(=O)N3CCOCC3)cc21
 : -10	-1	.	.	.
COc1cc([C@@H]2c3cc4c(cc3[C@H](O)[C@H]3COC(=O)[C@H]23)OCO4)cc(OC)c1OC
 : -2	6	i	i	i
CCN1C(=C2C(=O)c3ccccc3C2=O)C=Cc2ccccc21
 : -3	-11	i	i	i
Cc1n[nH]c(C)c1S(=O)(=O)N1CCC(C(=O)O)CC1
 : 2	-1	.	.	.
COc1ccccc1CNC(=O)CS(=O)Cc1nc(-c2ccccc2C)oc1C (stereo unspecified)
 : 0	-4	.	.	.
COc1cccc(-n2nc(C(=O)O)c3ccccc3c2=O)c1
 : -2	12	.	.	.
CC(C)Cc1cc(C(=O)NCc2cccs2)no1
 : -2	2	.	.	.
CCN(CC)c1ccc(/C=N/n2nnnc2N)c(O)c1
 : 5	-3	i	i	i
COc1ccc(NC(=O)CCn2cccc2)cc1
 : 2	5	.	.	.
CCOC(=O)c1ccc(N2C(=O)C3CC=CCC3C2=O)cc1 (stereo unspecified)
 : -3	-2	i	i	i
CC(C)COC(=O)c1ccc(NC(=O)C2C3CCC(C3)C2C(=O)O)cc1 (stereo unspecified)
 : -2	-2	.	.	.
O=C(NCCO)c1scc2c1OCCO2
 : 2	1	i	i	i
Fc1ccc(-c2cc(C(F)(F)F)nc(-n3cncn3)n2)cc1
 : 5	-2	.	.	.
O=C(OCC(=O)N1CCCCCC1)c1cccs1
 : -8	1	i	i	i
CN(CC(=O)N1CCc2ccccc21)S(=O)(=O)c1cccc2cccnc12
 : -2	5	.	.	.
CCOC(=O)C1CCCN(C(=O)c2cn(C)c3ccc(S(=O)(=O)N(C)C)cc3c2=O)C1 (stereo unspecified)
 : 1	0	.	.	.
CCC(CC)C(=O)NCCc1cc2ccc(OC)cc2[nH]c1=O
 : -1	-1	.	.	.
COc1ccc(NC(=O)CCCNS(=O)(=O)c2cccs2)cc1
 : 0	11	.	.	.
CSc1nc(N2CCOCC2)c2c(c1C#N)CCCCC2
 : 18	6	i	i	i
CCn1ncc(Br)c1C(=O)N(C)C12CC3CC(CC(C3)C1)C2
 : -8	2	.	.	.
COC(=O)CSc1cc(C)nc(NC(C)=O)n1
 : -3	-5	i	i	i
O=C(Nc1ccc2c(c1)OCCO2)C1CCCN(S(=O)(=O)c2cnc[nH]2)C1 (stereo unspecified)
 : -2	-3	i	i	i
O=C(C1CC1)N1CCc2cc(Br)cc(S(=O)(=O)NCc3ccccn3)c21
 : 0	1	.	.	.
O=c1[nH]c2ccccc2nc1NCCN1CCOCC1
 : 2	-1	i	i	i
CSc1ccc(CNc2ccccn2)cc1
 : 2	-2	.	.	.
CCn1c(C(=O)NCCCc2ccccc2)cc2sccc21
 : 1	0	.	.	.

A different layout for six compounds above:
structure,FPR binder,FPRL1 ligand,VCAM-1 down,VCAM-1 augmentation,VCAM-1 imaging
O=C(Nc1ccc2c(c1)OCCO2)C1CCCN(S(=O)(=O)c2cnc[nH]2)C1 (stereo unspecified),-2,-3,i,i,i
CCn1c(C(=O)NCCCc2ccccc2)cc2sccc21,1,0,.,.,.
O=C(C1CC1)N1CCc2cc(Br)cc(S(=O)(=O)NCc3ccccn3)c21,0,1,.,.,.
CSc1nc(N2CCOCC2)c2c(c1C#N)CCCCC2,18,6,i,i,i
COC(=O)CSc1cc(C)nc(NC(C)=O)n1,-3,-5,i,i,i
COc1ccc(NC(=O)CCCNS(=O)(=O)c2cccs2)cc1,0,11,.,.,.

(listing goes on)
Order of results: FPR binder	FPRL1 ligand	VCAM-1 down	VCAM-1 augmentation	VCAM-1 imaging
Nc1nc(CSc2nnnn2-c2ccc(F)c(Cl)c2)nc(N2CCOCC2)n1
 : 0	0	.	.	.
CCOC(=O)Cc1c(C)nc2c(-c3ccccc3)c[nH]n2c1=O
 : -2	0	.	.	.
CCC(C)NC(=O)CSc1nc2n[nH]c(C)c2c(=N)n1-c1ccc(OC)cc1 (stereo unspecified)
 : -4	3	.	.	.
CCN(CC)CCCN1C(=O)CSC1c1ccc2c(c1)OCO2 (stereo unspecified)
 : -3	-9	.	.	.
CC(C)Oc1cccc(-c2cc(C(=O)N3CCN(S(C)(=O)=O)CC3)c3ccccc3n2)c1
 : 8	1	i	i	i
CC(=O)c1ccc(NC(=O)C2CCN(S(=O)(=O)c3cccc4cccnc34)CC2)cc1
 : 2	0	i	i	i
O=C1CC(c2ccc(F)cc2)C2=C(CCCC2=O)N1 (stereo unspecified)
 : 1	4	.	.	.
CCCOc1ccc(NC(=O)c2c(-c3ccccc3)noc2C)cc1
 : -2	-5	.	.	.
